# StopGo FLuc: FMDV 2A StopGo reporter, firefly signal; HEK cells with a luciferase reporter of 2A StopGo recoding; Potency, µM (titrated, usually from 57.5 µM), without a hit: top-dose signal change, negative = less light; 120,000 compounds, 0.23% hits; AID 1745856; active = well fitted falling curve with a large enough effect; inconclusive = small, poorly fitted or top-dose-only effect; inactive = no such curve, though single readings can be large or run the other way; further: nearly all actives have a fitted effect of over 60% in size; overnight with compound
# StopGo RLuc: lowers the Renilla signal of an FMDV 2A StopGo reporter. Potency, µM (series often up to 57.5 µM), without a hit: top-dose signal change, negative = less light. 120,000 compounds, 0.32% hits. HEK cells with a luciferase reporter of 2A StopGo recoding; active means well fitted falling curve with a large enough effect; inconclusive means small, poorly fitted or top-dose-only effect; inactive means no such curve, though single readings can be large or run the other way; further: nearly all actives have a fitted effect of over 55% in size; overnight with compound
# Numbers without * were called inactive; ? = inconclusive; & = joins results of further samples; [ ] = dose if it differs, or a comment. On the % scale 0 is the no-effect control and ±100 the full control effect; potency means the concentration at half of the fitted maximal effect.
1	COc1cc(C2C(=O)N(C3CCCCC3)CC(=O)N2C2CCCC2)ccc1OC(C)C (stereo not drawn)
2	Cn1nc(C(=O)OC2CCCCCC2)c2ccccc2c1=O
3	Cc1c(NC(=O)C2CCN(S(=O)(=O)Cc3ccc(F)cc3)CC2)c(=O)n(-c2ccccc2)n1C
4	O=C(Nc1ccc2oc(-c3cccnc3)nc2c1)c1ccccc1I
5	COc1ccc(C)cc1CN(C)C(=O)NCc1ccc(S(=O)(=O)N2CCCCC2)cc1
6	CCc1ccc2oc(-c3cccc(NC(=O)c4cc5ccccc5o4)c3)nc2c1
assay / compound	1	2	3	4	5	6
StopGo FLuc	8%	-26%	8%	87%[activator]	-19%	210%[activator]
StopGo RLuc	-8%	-14%	9%	4%	45%[activator]	12%

7	COc1ccc(-c2cn3c(n2)sc2cc(C(=O)Nc4cccc(SC)c4)ccc23)cc1
8	Cc1ccc(C(=O)N2CCN(C(c3ccc(F)cc3)c3ccc(F)cc3)CC2)o1
9	CCOC(=O)Cn1c(=O)n(CC2CCCO2)c2nc(-c3ccccc3Cl)nc(C(N)=O)c21 (stereo not drawn)
10	COC(=O)/C(C#N)=C\c1cccc(Oc2ccc(Cl)cc2)c1
11	COc1ccccc1C(=O)NC1(C(F)(F)F)C(=O)Nc2c1c(=O)[nH]c(=O)n2-c1ccccc1 (stereo not drawn)
12	O=C(O)/C=C/c1nccs1
assay / compound	7	8	9	10	11	12
StopGo FLuc	10%	14%	1%	40%[activator]	41%[activator]	13%
StopGo RLuc	-10%	11%	10%	2%	0%	6%

13	CCCS(=O)(=O)c1nc(S(=O)(=O)c2ccc(C)cc2)c(NCc2ccccc2)s1
14	COc1ccc(C2c3c(-c4ccccc4)n[nH]c3C(=O)N2c2ccc(C(=O)O)cc2)c(OC)c1 (stereo not drawn)
15	Cc1ccc(Cn2cc(COC(=O)Nc3ccc(F)cc3)nn2)cc1
16	CNc1nnc(SCc2cc(C#N)ccc2F)s1
17	COc1ccc(CN(C)c2ccc(-c3nc(-c4ccccc4)no3)cc2[N+](=O)[O-])cc1
18	O=c1c2sc3ccccc3c2n(Cc2cccc(C(F)(F)F)c2)c(=O)n1Cc1ccco1
assay / compound	13	14	15	16	17	18
StopGo FLuc	32%[activator]	-11%	-5%	161%[activator]	175%[activator]	-5%
StopGo RLuc	233%[activator]	-8%	2%	31%[activator]	9%	-11%

19	Cc1c(CC(=O)NCc2ccc(F)cc2)c(=O)oc2c(C)c(O)ccc12
20	COc1ccccc1CNC(=O)C1CCCN(c2nn3cc(-c4ccc(F)cc4)nc3s2)C1 (stereo not drawn)
21	CC(C)Cn1cnc2c1c(=O)n(CC(=O)NC1CCCCCC1)c(=O)n2Cc1ccccc1
22	CCc1nnsc1C(=O)N(C)CCOc1ccc(C)cc1
23	COc1cccc(C(=O)Nc2nc3nc(-c4ccccc4)cc(=O)n3[nH]2)c1
24	CCOC(=O)COc1ccc2c(=O)c(-c3ccccc3)c(C)oc2c1
assay / compound	19	20	21	22	23	24
StopGo FLuc	62%[activator]	?	11%	10%	-1%	-5%
StopGo RLuc	49%[activator]	-11%	16%	4%	-4%	-6%

25	Cc1ccc2scc(N3CCN(c4ccc(F)cc4)CC3)c(=O)c2c1
26	Cc1cc(C(=O)N2CCN(c3ncccn3)CC2)c2c(C)noc2n1
27	COc1cc(NC(=O)c2nn(C)c3c2CS(=O)(=O)c2ccccc2-3)cc(OC)c1
28	O=C(CN1CCN(CC(=O)Nc2cccc(F)c2)CC1)NCCc1c[nH]c2ccccc12
29	CC(C)N1CCc2c(sc(NC(=O)c3ccc(S(=O)(=O)N(C)C4CCCCC4)cc3)c2C(N)=O)C1
30	CC1CCC(NC(=O)c2ccc3c(c2)N(Cc2ccccc2F)C(=O)c2ccccc2S3)CC1 (stereo not drawn)
assay / compound	25	26	27	28	29	30
StopGo FLuc	26%	-4%	1%	-7%	-36%	87%[activator]
StopGo RLuc	16%	-13%	0%	-12%	24%	14%

31	CCOC(=O)c1cnc(SCc2nc(-c3ccccc3C)oc2C)nc1N
32	Cc1ccc(C)c(CN2C(=O)c3ccccc3Sc3ccc(C(=O)NCc4ccc5c(c4)OCO5)cc32)c1
33	COc1ccccc1/C=C/c1nc(C#N)c(N2CCCCC2)o1
34	CC(=O)c1ccc(C(=O)N(C)C(c2ccccc2)c2ccccc2)s1
35	Clc1cccc(C=Nc2cccc3ccccc23)c1Cl
36	CCc1ccc(NC(=O)c2cc3c(COC(C)=O)cnc(C)c3oc2=O)cc1
assay / compound	31	32	33	34	35	36
StopGo FLuc	36%[activator]	3%	37%[activator]	0%	20%	-16%
StopGo RLuc	4%	21%	8%	-4%[1.06 µM]	12%	-19%

37	COc1cc(OC)cc(C(=O)Nc2ncc3c(n2)CC(c2ccc(Cl)cc2)CC3=O)c1 (stereo not drawn)
38	O=C(CSc1nc(Cl)nc2nc[nH]c12)NCCc1ccccc1
39	Cc1cc(C)c(NC(=O)COc2ccc3c(C)cc(=O)oc3c2)c(C)c1
40	CCN(CC)S(=O)(=O)c1ccc2c(c1)nc(SCC(=O)Nc1ccc3c(c1)OCO3)n2CC
41	CN(CC(=O)NCCc1cccc2ccccc12)c1ncnc2nc[nH]c12
42	Cc1nn(C)c(C)c1CC(=O)Nc1nc(C2CC2)cs1
assay / compound	37	38	39	40	41	42
StopGo FLuc	5%	9%	13%&-11%	49%[activator]	-3%	?
StopGo RLuc	-4%	-3%	39%&-12%[activator]	61%[activator]	-2%	?

43	O=C(Nc1ccccc1C(F)(F)F)C1(S(=O)(=O)c2ccc(Cl)cc2)CC1
44	O=C(Nc1cc(-c2nc3ccccc3o2)ccc1Cl)c1cc([N+](=O)[O-])ccc1N1CCOCC1
45	CCc1ccc2oc(=O)cc(CN3CCN(c4ccccc4)CC3)c2c1
46	CC(C)C(NC(=O)c1ccccc1)C(=O)N[C@@H](C)c1nnc2ccccn12 (stereo partly drawn)
47	CN(C)CCNC(=O)c1ccc2c(=O)n3c(nc2c1)CCCCC3
48	CCN(CC)S(=O)(=O)c1ccc2c(c1)cc(C(=O)NC(C)Cc1ccco1)n2C (stereo not drawn)
assay / compound	43	44	45	46	47	48
StopGo FLuc	6%	38%[activator]	2%	-11%	0%	-10%
StopGo RLuc	31%[activator]	1%	-4%	-17%	-6%	0%

49	Cc1cc(O)cc(C)c1Cl
50	Cc1[nH]c2c(C(C)C)cccc2c1CCN
51	Cc1cc(NC(=O)CN2C(=O)c3cccnc3Sc3ccccc32)ccc1Br
52	CCc1nc(C#N)c(NCCc2ccc(OC)cc2)o1
53	CC(C)C(=O)NCC(=O)O
54	COc1ccc(Cl)cc1NC(=O)CSc1nc2ccccc2nc1C
assay / compound	49	50	51	52	53	54
StopGo FLuc	2%[11.5 µM]	4%	-3%	182%[activator]	9%	14%
StopGo RLuc	17%	-18%	-7%	17%	9%	7%

55	Cc1ccccc1CC(=O)Nc1ccc2c(C)cc(=O)oc2c1
56	CCCSc1ncc(Cl)c(C(=O)N2CCN(c3ccc(OC)cc3)CC2)n1
57	Cc1ccc(C)c(N2CCN(C(=O)CCCCCn3c(=O)[nH]c4ccccc4c3=O)CC2)c1
58	CCCOc1cc(OCCC)c2c(=O)cc(-c3ccccc3)oc2c1
59	CC1CCCCN1S(=O)(=O)NC1CCN(c2ncccn2)CC1 (stereo not drawn)
60	CC(C)c1ccc(-c2noc(SCC(=O)N3CCN(c4ccccc4F)CC3)n2)cc1
assay / compound	55	56	57	58	59	60
StopGo FLuc	15%	0%	21%	12%	-11%	31%[activator]
StopGo RLuc	8%	33%[activator]	45%[activator]	4%	-10%	5%

61	CC(=O)Nc1ccc(-c2csc(Nc3ccc(O)cc3)n2)cc1
62	COc1ccc(Nc2cc(C)nc3nc(-c4ccccc4)nn23)cc1
63	CCCNc1c(NC(=O)Nc2ccc(F)cc2F)c(=O)oc2ccccc12
64	O=C(NCCOc1ccccc1)c1ccc2ccccc2n1
65	Cn1c(=O)[nH]c(=O)c2c1nc(N1CCN(Cc3ccccc3Cl)CC1)n2Cc1ccccc1F
66	Cc1ccccc1CN1C(=O)c2ccccc2Sc2ccc(C(=O)N3CCCC3)cc21
assay / compound	61	62	63	64	65	66
StopGo FLuc	230%[activator]	25%	-2%	-43%	15%	-29%
StopGo RLuc	63%[activator]	8%	3%	0%	-3%	68%[activator]

67	Cc1ccc(N2CC(NC(=O)c3cccs3)CC2=O)cc1 (stereo not drawn)
68	CC(C)N=C(N)/N=C(\N)Nc1ccc(Cl)cc1
69	Cc1cccc2sc(NC(=O)c3cccn(Cc4ccccc4)c3=O)nc12
70	Cc1ccc(NC(=O)C2CCN(c3cc(C)nc4c(-c5ccc(Cl)cc5)c(C)nn34)CC2)c(C)c1
71	O=C(CN1C(=O)S/C(=C\c2ccccc2Cl)C1=O)Nc1ccc2oc(=O)ccc2c1
72	COc1cc(NC(=O)N2CC3CCCN3c3ccccc32)cc(OC)c1OC (stereo not drawn)
assay / compound	67	68	69	70	71	72
StopGo FLuc	-11%	-13%	7%	-24%	10%	1%
StopGo RLuc	4%	0%	-8%	-11%	-2%	-3%

# Screen by screen, from the results shown.
# Compounds 67–70 in StopGo FLuc read -11%, -13%, 7%, -24%
# Compounds 67–70 in StopGo RLuc read 4%, 0%, -8%, -11%

# The list continues.
73	O=C(Cc1coc(-c2ccccc2)n1)NC1CCCC1
74	CCCn1nc(C(=O)N(C)Cc2ccc(F)cc2)c2ccccc2c1=O
75	Cc1cc(C)nc(NC2=NCC(=O)N2c2ccc(F)c(Cl)c2)n1
76	COc1cccc(C(=O)NCCc2csc(-c3ccccn3)n2)c1
77	O=S(=O)(NCc1ccnc(N2CCOCC2)c1)c1ccc(Cl)cc1C(F)(F)F
78	COc1cc(C(=O)N2CCC(c3nc4ccccc4s3)CC2)cc(OC)c1OC
assay / compound	73	74	75	76	77	78
StopGo FLuc	0%	2%	-1%	0%	?	?
StopGo RLuc	19%	12%	-1%	-3%	-20%	-28%

# Two entries from above, bar-delimited:
entry | smiles | StopGo FLuc | StopGo RLuc
74 | CCCn1nc(C(=O)N(C)Cc2ccc(F)cc2)c2ccccc2c1=O | 2% | 12%
75 | Cc1cc(C)nc(NC2=NCC(=O)N2c2ccc(F)c(Cl)c2)n1 | -1% | -1%

# The listing picks up; the 2 compounds before the break are reprinted first.
77	O=S(=O)(NCc1ccnc(N2CCOCC2)c1)c1ccc(Cl)cc1C(F)(F)F
78	COc1cc(C(=O)N2CCC(c3nc4ccccc4s3)CC2)cc(OC)c1OC
79	CCCCCCOc1ccc(C(=O)Oc2ccc(-c3ccc(CCC)cn3)cc2)cc1
80	N#Cc1ccccc1CSc1nccc(C(F)(F)F)n1
81	Cc1ccccc1OCC(=O)Nc1ccc(OCc2cc(=O)n3ccsc3n2)cc1
82	COc1ccc(C(=O)Nc2ccc3nc(SCC(=O)N4CCc5ccccc54)sc3c2)cc1
83	Cc1cc(C)cc(OCC(=O)Nc2ccc(-c3nc4ncccc4o3)cc2C)c1
84	COCCn1c(SC(C)C#N)nnc1-c1ccc(Cl)cc1 (stereo not drawn)
assay / compound	77	78	79	80	81	82	83	84
StopGo FLuc	?	?	0%	8%	-10%	-4%	-6%	9%
StopGo RLuc	-20%	-28%	-11%	-12%	-5%	-7%	-9%	13%

85	COc1ccc(NC(=O)CCn2c(-c3ccc(F)cc3)cc(C(C)=O)c2C)c(OC)c1
86	O=C(O)CSC(=O)c1ccccc1Cl
87	COc1cc(Nc2ncc3c(n2)CCN(Cc2cc(Br)cs2)C3)cc(OC)c1
88	COc1cccc(CN(C)C(=O)c2cc3cc(Br)ccc3[nH]2)c1
89	CCC(CC)NC(=O)Cc1nn(C)c(=O)c2ccccc12
assay / compound	85	86	87	88	89
StopGo FLuc	-3%	-3%	7%	-9%	7%
StopGo RLuc	6%	-13%	-2%	15%	-2%

# Single entries from above:
# `COc1cccc(CN(C)C(=O)c2cc3cc(Br)ccc3[nH]2)c1` – StopGo FLuc = -9%
# `O=C(O)CSC(=O)c1ccccc1Cl` – StopGo FLuc = -3%
# `COc1ccc(NC(=O)CCn2c(-c3ccc(F)cc3)cc(C(C)=O)c2C)c(OC)c1` – StopGo RLuc = 6%
